Bioassay records as filed in PubChem BioAssay.
Sa helicase inh: blocks Staphylococcus aureus DNA helicase | purified S. aureus helicase, fluorescence unwinding assay; about half of the hits fall short of the stated cut | inhibition, %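 (tested at about 80 µM)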 | 120,000 tested, 0.05% active | AID 485395;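 active = both duplicates at 50% or more, or one of them with a favoured structure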;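 note: 0% = mean of negative control wells and 100% = mean of positive control wells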
MgrA-DNA mod: S. aureus MgrA-DNA binding modulation; fluorescence polarization; inhibition, %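 (about 10 µg/mL by stock and volumes)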; 84,000 tested, 0.13% active; AID 602314;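 active = above 50% in either of two replicates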;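 note: 0% = protein plus DNA without compound and 100% = DNA alone without protein; higher means less MgrA bound to DNA so lower polarization; one replicate is shown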
* marks the source's active call; other numbers are inactive results; . = not tested or not shown; & = joins results of further samples. Not all compounds are listed (hit frequency here may not be typical).

SMILES	Sa helicase inh	MgrA-DNA mod
COc1ccc(Nc2c(-c3ccccc3)nc3cnccn23)cc1	8	5.0
CCN(CC)c1nc2c(S(=O)(=O)c3ccccc3)nnn2c2ccccc12	9	-0.8
Cc1ccc(-c2sc(-c3ccccc3)nc2CC(=O)O)cc1	-20	3.3
CCCCCCCCCCCCC(O)C(=O)O (centres undefined)	.	0.5
CCOC(=O)N1CCC(NC(=O)c2ccc3c(Cl)c4c(nc3c2)CCCC4)CC1	-8	.
N/N=C(/Cn1nnc(N2CCCCC2)n1)c1ccc(Cl)cc1	.	-0.8
C=CCN(CC=C)S(=O)(=O)c1ccc(NC(=O)c2cccnc2)cc1	22	0.0
O=C(OCCCN1CCOCC1)c1ccc(O)cc1O	2	-2.0
O=C(CSc1nncc(=O)[nH]1)NCc1ccccc1	3	-3.8
Clc1ccc(-c2ncnn2-c2ccc(Br)nc2)cc1	-7	.
CCC(C)NC(=O)Cn1c(=O)n(CC(=O)NCc2ccc(C)cc2)c(=O)c2sccc21 (centres undefined)	-3	0.6
CC(C)OC(=O)CSc1n[nH]c(-c2cccnc2)n1	1	0.9
CCCNC(=O)c1oc(=O)c2ccccc2c1-c1ccccc1	15	-0.9
C=CCSc1nnc(Cn2c(=O)sc3ccccc32)n1-c1ccccc1	10	.
COc1cc2c(cc1OC)C(COc1ccccc1OC)N(C(=O)/C=C/c1ccccc1)CC2 (centres undefined)	8	-0.2
CN(C)c1ccc(C(=O)N=c2sc3cc(Cl)ccc3n2C)cc1	-4	.
COc1ccc(NC(=O)COc2cc(=O)n(C)c3ccccc23)cc1OC	7	.
c1ccc(-c2nccnc2-c2ccccn2)nc1	.	-1.9
Cc1cc(C(=O)Oc2ccccc2Cc2ccccc2)on1	-10	.
N#Cc1ccc(NCC(=O)Nc2ccc(S(=O)(=O)N3CCCCC3)cc2)cc1	5	.
Cc1cc2c(ncn2Cc2ccccc2)c(N)c1C	.	1.4
COC(=O)CSCC1=CS(=O)(=O)c2ccc(Cl)cc21	.	-3.2
CC1=C(C(=O)Nc2ccccc2C)C(c2ccc(Cl)cc2Cl)NC(=O)N1 (centres undefined)	.	2.9
C=CCN1CCN(C(=O)c2cccc(C)c2)CC1	9	2.8
CC(=O)c1ccc(C#Cc2ccccc2)cc1	.	3.3

Remaining list, next part.
SMILES	Sa helicase inh	MgrA-DNA mod
COc1ccc(-c2cc(-c3ccco3)c(C#N)c(N)n2)cc1	14	-1.4
COc1cccc(OC)c1C(=O)c1cc[n+](C)cc1	.	-0.4
Cc1ccc2c(c1)-c1onc(C(=O)NC3CCCCC3)c1CO2	4	0.2
CNS(=O)(=O)c1cccc(C(=O)NCC(c2ccco2)N(C)C)c1 (centres undefined)	-11	.
CCOC(=O)CSc1nnc(-c2cccc(C)c2[N+](=O)[O-])n1-c1ccccc1	.	0.5
CCn1cc(P(=Nc2ccc(C(=O)O)cc2)(N2CCOCC2)N2CCOCC2)c2ccccc21	15	.
Cc1ccc(C(=O)c2ccccc2[N+](=O)[O-])cc1	.	0.3
C=CCSc1nnc(-c2ccc(Cl)cc2)n1CC(OC)OC	.	4.0
CCn1c(C(=O)OC)cc2occc21	0	.
O=C(O)c1c(-c2ccccc2)nnc2ccccc12	.	-1.6
Cc1ccc(-c2csc(=Nc3c(C)n(C)n(-c4ccccc4)c3=O)n2CCO)cc1	-1	.
CCCc1cc(=O)n(CC(=O)N2CCCc3ccccc32)c(-n2nc(C)cc2C)n1	-18	.
COc1ccc(CCNc2cc(C)nc3c(-c4ccc(OC)c(OC)c4)c(C)nn23)c(OC)c1	1	0.1
O=c1ccc2cc(S(=O)(=O)NCCN3CCN(c4cccc(Cl)c4)CC3)ccc2[nH]1	7	2.8
COc1ccc2c(C)c(CCC(=O)N3CCCCC3)c(=O)oc2c1	-15	.
CCOC(=O)c1cnc(SCC(=O)OCC(=O)Nc2sc3c(c2C#N)CCC3)nc1N	-17	.
CCOC(=O)/C(C#N)=C/c1cc(Br)cs1	16	0.3
CN(C)c1ccc(C(=O)N2CCN(C(c3ccccc3)c3ccccc3)CC2)cc1	-20	2.9
COCCn1c(SCC(N)=O)nc2c(c1=O)SC(C)C2 (centres undefined)	2	.
Cn1c(SCC(=O)Nc2ccccc2)nnc1-c1ccc2ncccc2c1	.	-0.6
COc1cccc2c(=O)n(CC(N)=O)ccc12	7	.
COCCN=c1scc(C)n1/N=C/C1CC2C=CC1C2 (centres undefined)	-17	.
CC(C)C(=O)OCC(=O)Nc1ccc(I)cc1	13	0.7
COC(=O)c1ccc(NCc2cc(=O)n3ccsc3n2)cc1	30	.
Cc1cccc(NC(=S)Nn2c(O)c(C)sc2=S)c1	4	.

(list continues)
SMILES	Sa helicase inh	MgrA-DNA mod
CCOC(=O)C1C(C)=C(c2ccc(Cl)cc2)OC(N)=C1C#N (centres undefined)	8	0.6
Cc1ccc(CNc2ccc(N3CCOCC3)c(Cl)c2)s1	10	2.4
Cn1c(SCC(=O)NC(=O)Nc2ccccc2F)nc2cc(S(N)(=O)=O)ccc21	7	.
COc1ccc(C(=O)CSC2=C(C#N)C(C)(C)C(C#N)=C(N)N2)cc1	-9	.
Oc1ccc(O)cc1	.	0.4
CSc1ncc(OCc2ccccc2)c(=O)[nH]1	.	-1.5
Cc1ccc(C)c(NC(=O)Cc2nc(CSc3nnc(-c4cccs4)o3)cs2)c1	11	.
COc1cc2cc(C(=O)Nc3ccccc3)c(N)nc2cc1OC	11	0.2
Cc1nnc(NC2CCCCC2)n(C)c1=O	-13	.
CCn1c(-c2ccccc2)cnc1SCC(=O)N(C)C1(C#N)CCCCC1	0	.
Cc1cc2cc(CN(C(=O)N(C)C)C3CCCC3)c(Cl)nc2cc1C	9	0.2
O=S(=O)(/C=C/c1ccccc1)N1CCN(c2ccccn2)CC1	-12	.
O=S(=O)(c1ccc(Cl)cc1)N1CCSCC1	.	0.0
CCCSc1nnc(NC(=O)Cc2ccc(OC)cc2)s1	1	.
CC1CCN(C(=O)c2ccc(CSc3nc4ccncc4[nH]3)cc2)CC1	6	-1.6
Cc1cn(S(=O)(=O)c2csc(Cl)c2Br)nc1-c1cccs1	-34	.
O=C(c1ccc(S(=O)(=O)N2CCCCCC2)cc1)N(c1ccccn1)c1ccccn1	-8	.
CCOC(=O)c1cnc2c(Cl)cccc2c1Cl	-11	-1.7
O=C1COc2ccc(C(=O)c3ccccc3)cc2CN1	10	.
CC1CCCC(NC(=O)Nc2cccs2)C1C (centres undefined)	12	-0.1
COc1cc(CN(C(=O)c2cccc([N+](=O)[O-])c2)c2cccc(F)c2)cc(OC)c1OC	.	2.6
O=C(c1ccccc1)N1CCC2(CC1)Cc1ccccc1C2=O	11	3.0
CC(C)(C)C(=O)NC(=S)Nc1ccc2c(c1)COC2=O	-16	2.9
CC(=O)N[C@@H]1[C@@H](O)[C@H](O)[C@@H](CO)O[C@H]1O	.	1.3
Cc1noc(C)c1C(=O)O/N=C1\CCSc2ccc(F)cc21	-20	.

By substructure, those above containing fluorine.
SMILES	Sa helicase inh	MgrA-DNA mod
Cn1c(SCC(=O)NC(=O)Nc2ccccc2F)nc2cc(S(N)(=O)=O)ccc21	7	.
COc1cc(CN(C(=O)c2cccc([N+](=O)[O-])c2)c2cccc(F)c2)cc(OC)c1OC	.	2.6
Cc1noc(C)c1C(=O)O/N=C1\CCSc2ccc(F)cc21	-20	.

Part of the list above in order of length of the SMILES, lowest first.
SMILES	Sa helicase inh	MgrA-DNA mod
Oc1ccc(O)cc1	.	0.4
CCOC(=O)c1cnc2c(Cl)cccc2c1Cl	-11	-1.7
Cc1noc(C)c1C(=O)O/N=C1\CCSc2ccc(F)cc21	-20	.
CC1CCN(C(=O)c2ccc(CSc3nc4ccncc4[nH]3)cc2)CC1	6	-1.6

New compounds follow:
SMILES	Sa helicase inh	MgrA-DNA mod
CC1(C)CC(c2csc(N)n2)CCO1 (centres undefined)	2	.
Cc1[nH]n(-c2cccc(Cl)c2)c(=O)c1N=Nc1ccc(C(C)(C)C)cc1	.	-0.4
Cc1ccc2c(CSc3nnc4ccccn34)cc(=O)oc2c1	6	.
CCC(Sc1ccccc1)C(=O)Nc1nnc(-c2ccc(OC)cc2OC)s1 (centres undefined)	14	.
CCOc1ccc(C(=O)N2CC(C)CC(C)C2)cc1 (centres undefined)	0	0.8
CCOC(=O)N1CCC(NC(=O)c2oc3ccc4c(c3c2C)C(O)CC(C)(C)O4)CC1 (centres undefined)	-8	.
NC(Cn1ccc(=O)c(O)c1)C(=O)O (centres undefined)	.	-0.9&-1.4
Nc1cc(C(F)(F)F)ccc1C(F)(F)F	-25	0.2
CCCn1c(N)c(N(C)C)c(=O)n(CC(=O)Nc2ccc(OC(F)(F)F)cc2)c1=O	-13	.
Cn1c(N)c(C(=O)CSc2ccccn2)c(=O)n(C)c1=O	-11	.
CCN(CC)c1ccc2cc(-c3nc4ccccc4s3)c(=O)oc2c1	.	-5.4
Cn1c(O)c(C=NCc2ccc3c(c2)OCO3)c(=O)n(C)c1=S	8	-2.8
CCOC(=O)c1csc(NC(=O)c2cccs2)n1	-6&3	.
Cc1nc(COc2ccccc2Cl)[nH]c(=O)c1Cl	.	-1.1
COc1cccc(CN(C(=O)CSc2nc(N)nc(N)n2)C23CC4CC(CC(C4)C2)C3)c1	-2	.
Cc1c(C(=O)O)sc2ncn(C)c(=O)c12	9	-6.5
CC(=O)Nc1ccc(N2CCN(Cc3ccccc3)CC2)cc1	7	-1.8
COC(=O)C(C)Oc1cc(O)c2c(=O)cc(-c3ccccc3)oc2c1 (centres undefined)	10	1.4
COc1ccc(C2(N3CCC4(CC3)OCCO4)C(=O)c3ccccc3C2=O)cc1	0	.
CCCOc1ccc(C(=O)NCC2CCCO2)cc1 (centres undefined)	7	-0.3
COc1ccc(N2CC(C(=O)Nc3ccc(S(=O)(=O)N4CCCC4)cc3)CC2=O)cc1 (centres undefined)	4	-1.9
CCc1nnc(NS(=O)(=O)c2ccc(N3C(=O)C4CC=C(Cl)CC4C3=O)cc2)s1 (centres undefined)	-10	.
CC(C)N(Cc1ccccc1)C(=O)Cn1c(=O)cnc2ccccc21	13	.
COC(=O)CCc1sc(NC2CCCCC2)nc1-c1ccc(OC)cc1	0	0.3
c1cc2c(cc1OCc1nn[nH]n1)OCO2	10	2.8

The list goes on.
SMILES	Sa helicase inh	MgrA-DNA mod
CN(C1CCCCC1)S(=O)(=O)c1ccc(Cl)c(C(=O)O)c1	-7	.
COCC(C)n1c(C)cc(C(=O)COC(=O)c2ccc(S(=O)(=O)N3CCCC3)cc2)c1C (centres undefined)	5	.
CC(C)(C)n1ncc2c(=O)n(CC(=O)NC3CCCCC3)cnc21	6	0.0
C=CCN1C(=O)/C(=C/c2ccc3ccccc3n2)S/C1=N/S(=O)(=O)c1ccc(C)cc1	9	1.4
COc1ccc(C2(CNC(=O)c3ccco3)CCOCC2)cc1	6	-0.2
Cn1c(=O)c2c(NCc3ccccc3)cc(=O)n(C)c2n(C)c1=O	-24	.
O=C(NCC1CCCCC1)C1CCCN(c2ncccn2)C1 (centres undefined)	6	3.2
Nc1cc(C(=O)O)ccc1Sc1ccccc1C(=O)O	8	9.8
O=C1c2ccccc2-c2ccccc21	3	.
NNC(=O)Cc1cc(=O)n(-c2ccc(F)cc2)[nH]1	-4	.
CCn1c(SCC(=O)Nc2nc(-c3ccccc3)c(-c3ccccc3)o2)nc2ccccc2c1=O	1	-0.8
C=CCN(C(=O)Cn1c(C(=O)OC)cc2occc21)c1ccccc1	6	.
CN1/C(=C\C(=O)COC(=O)c2ccccc2)C(C)(C)c2ccccc21	-35	-0.2
COC(=O)c1scc(C)c1NNC(=O)C(F)(F)F	22	.
CCN1CCN(Cc2ccc(NC3=NS(=O)(=O)C(c4ccc(C)c(C)c4)=C3C)cc2)CC1	17	.
Cc1cc(C(=O)CSc2nc3ccccc3c(=O)[nH]2)c(C)n1-c1ccc2c(c1)OCO2	-3	.
CCn1cc(CNC)c(C)n1	6	0.8
CCN(CC)c1ccc2nc(C)c(=O)oc2c1	-81	.
O=C(COc1ccc(Cl)cc1Cl)NCCCN1CCOCC1	4	-1.5
Cc1nc(Cc2nnc(SCc3cc(=O)oc4cc(C)c(C)cc34)o2)cs1	-6	.
O=C(CCc1c[nH]c2ccccc12)OCC(=O)c1cc2c3c(c1)CC(=O)N3CCC2	-7	.
CC1CN(C(=O)c2ccc3ncsc3c2)CC(C)O1 (centres undefined)	-14	.
O=c1c2ccccc2nc2n1CCC2O (centres undefined)	5	.
CCOC(=O)C(CC)n1cnc2sc3c(c2c1=O)CCC3 (centres undefined)	3	.
Cc1ccc(CN2C(=O)/C(=C\c3ccc(C(=O)NCc4cccnc4)cc3)Oc3ccccc32)cc1	6	-0.9

Overlap with the part before: 2 compounds, then new ones.
SMILES	Sa helicase inh	MgrA-DNA mod
CCOC(=O)C(CC)n1cnc2sc3c(c2c1=O)CCC3 (centres undefined)	3	.
Cc1ccc(CN2C(=O)/C(=C\c3ccc(C(=O)NCc4cccnc4)cc3)Oc3ccccc32)cc1	6	-0.9
Cc1cc(C)[n+](CC(O)CCl)n1CC(O)CCl (centres undefined)	2	-3.1
Cc1cc(N/C=C(\C#N)C(=O)c2ccc(Cl)cc2)no1	-12	.
CCc1nc(-c2ccc(Cl)cc2)no1	.	-0.3
CN1C(=O)C(C)(C)c2cc(S(=O)(=O)NCC3CCC(C(=O)N4CCCC4)CC3)ccc21 (centres undefined)	0	.
C=CCN(C(=O)CSc1nc2c(c(=O)[nH]1)CCC2)c1ccccc1	23	.
COc1ccc2cc(Br)ccc2c1CCl	1	.
CCC(=O)NCCCc1nc2ccccc2[nH]1	9	.

Taken from above:
Sa helicase inh result of COc1ccc2cc(Br)ccc2c1CCl → 1
MgrA-DNA mod result of Cc1cc(C)[n+](CC(O)CCl)n1CC(O)CCl (centres undefined) → -3.1
